Chronic BCR inh = qHTS Assay to Find Inhibitors of Chronic Active B-Cell Receptor Signaling; ABC-DLBCL IkBa-CBG/CBR reporter, luminescence ratio, 4 h; Potency, µM (series often up to 46.1 µM), without a hit: at the top dose ratio change, negative = lower green/red ratio, actives largely listed as inhibitors; 0.05% of 340,000 active; active = well fitted inhibition curve with a large enough effect in the signal ratio, with a control signal flat, not every such curve was filed as active; inconclusive = small, poorly fitted or top-dose-only effect, or effect the other way, or a change in a side signal; the % refers to the signal ratio;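 note: potency is the fitted concentration of half-maximal effect; plate controls were basal doxycycline-induced cells for no effect and cells given 10 µM MG132 for full effect; MG132 reads +100%, hits lower the ratio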
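Doxycycline induced both beetle luciferases in TMD8 lymphoma cells; IKK-driven degradation limits the IkappaBalpha-fused green signal, while red luminescence normalises for cell number and nonspecific effects. Compounds tested up to 46 uM, 4 hrs.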
S-ASM inh = Inhibitors of Secretory Acid Sphingomyelinase (S-ASM): qHTS; placental ASM, HMU-PC fluorogenic substrate, 60 min; 0.006% of 340,000 active; AID 504937, 2011; Sphingomyelin phosphodiesterase (Homo sapiens), P17405; Potency, µM (titrated, usually from 57.5 µM), without a hit: at the highest dose activity change, negative = inhibition, usual class: inhibitors; note: potency is the fitted concentration of half-maximal effect
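Steps: dispense placental human ASM, pin compound, wait 10 min at room temperature, add HMU-PC0 substrate at 9 uM final, incubate 60 min at 37 °C, add stop solution raising pH to 10, read fluorescence.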
KCNH2 WT inh = qHTS for Inhibitors of KCHN2 3.1: Wildtype qHTS; 0.37% of 340,000 active; activity change, % at 1.84 µM; Voltage-gated inwardly rectifying potassium channel KCNH2 (Homo sapiens), Q12809; U2OS, BacMam KCNH2, thallium flux FluxOr; active compounds read low;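 active = maximum activity change below -70%; inconclusive = maximum activity change between -70% and -50%; inactive = maximum activity change above -50%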; note: % is set by controls: 0 for no effect and ±100 for the full control effect
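U2OS cells transduced with wild-type KCNH2 virus are loaded with FluxOr dye for 45 min, and thallium flux is measured in kinetic reads before and after stimulation buffer. Rate constants are normalized to DMSO controls.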
GALK inh = qHTS Assay for Inhibitors of Human Galactokinase (GALK); P51570; Potency, µM (titrated, usually from 57.5 µM), for the others: at the highest dose activity change, negative = inhibition, usual class: inhibitors; AID 1868, 2009; Purified GALK, Kinase-Glo residual ATP luminescence; 0.007% of 270,000 active; note: potency is the fitted concentration of half-maximal effect; % is set by controls: 0 for no effect and ±100 for the full control effect
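Galactose (100 uM) and ATP (35 uM) were turned over by 5 nM GALK for 1 h at RT. Kinase-Glo Plus then converted the remaining ATP into a luminescent signal.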
MBNL1 CUG block = qHTS Assay for Inhibitors of MBNL1-poly(CUG) RNA binding. Potency, µM (titrated, usually from 57.5 µM), inactives show top-dose activity change, negative = inhibition, usual class: inhibitors. TR-FRET MBNL1-His/biotin-(CUG)12 binding, 665/545 ratio. Muscleblind-like protein 1 (Homo sapiens), Q9NR56. 0.036% of 280,000 active; active = well fitted inhibition curve with a large enough effect in the signal ratio, with a control signal flat, not every such curve was filed as active; inconclusive = small, poorly fitted or top-dose-only effect, or effect the other way, or a change in a side signal; inactive = no such curve, though single readings can be large or run the other way; the % refers to the signal ratio; note: potency is the fitted concentration of half-maximal effect; % is set by controls: 0 for no effect and ±100 for the full control effect
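TR-FRET readout: Ex 340 nm, 665/545 nm emission ratio, normalized to buffer-only (basal) and MBNL1-(CUG)12 controls. Complex of MBNL1-His with Biotin-(CUG)12, compounds 92 nM–58 uM, incubated 60 min at room temperature.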
Eya2 phos inh = qHTS Assay for Inhibitors of the Phosphatase Activity of Eya2; 0.006% of 330,000 active; recombinant Eya2, OMFP fluorescence dephosphorylation (OMFP is methylfluorescein phosphate); Potency, µM (highest dose often 76.9 µM), for the others: at the highest dose activity, negative = inhibition, hits mostly inhibitors; note: potency is the fitted concentration of half-maximal effect; % is set by controls: 0 for no effect and ±100 for the full control effect
Target sequence (O00167 whole entry, looked up): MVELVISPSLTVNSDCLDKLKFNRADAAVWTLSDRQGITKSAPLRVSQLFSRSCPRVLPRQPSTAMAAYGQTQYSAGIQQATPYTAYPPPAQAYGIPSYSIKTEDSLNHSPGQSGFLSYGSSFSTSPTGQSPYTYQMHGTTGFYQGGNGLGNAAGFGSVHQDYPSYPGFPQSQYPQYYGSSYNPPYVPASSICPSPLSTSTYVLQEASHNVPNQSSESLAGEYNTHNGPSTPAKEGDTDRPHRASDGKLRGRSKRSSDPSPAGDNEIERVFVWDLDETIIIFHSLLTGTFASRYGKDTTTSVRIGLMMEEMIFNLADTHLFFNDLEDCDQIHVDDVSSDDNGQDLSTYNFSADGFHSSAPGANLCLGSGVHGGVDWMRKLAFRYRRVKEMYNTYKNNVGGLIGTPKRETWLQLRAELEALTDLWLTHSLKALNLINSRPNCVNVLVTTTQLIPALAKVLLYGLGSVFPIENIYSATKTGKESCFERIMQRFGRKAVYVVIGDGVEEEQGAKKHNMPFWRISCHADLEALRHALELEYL
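Eya2 (0.2 uM) preincubated 10 min at ambient with compound, then OMFP substrate added at 50 uM; 10 min reaction in 50 mM HEPES pH 7.5, 50 mM NaCl, 5 uM MgCl2, 0.05% BSA, 1 mM DTT. Fluorescence read at Ex 485/Em 525 nm.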
Mito fusion act = qHTS Assay for Small Molecule Inhibitors of Mitochondrial Division or Activators of Mitochondrial Fusion; S. cerevisiae fusion-defective mutant growth rescue, CellTiterGlo 48 h; Potency, µM (doses to about 46.1 µM), for the others: at the highest dose growth rescue (activation), actives largely listed as activators; 0.23% of 320,000 active;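 note: potency is the fitted concentration of half-maximal effect; % of control where 0% means no effect; nearly all actives have a fitted effect of over 45% in size; temperature-sensitive fusion mutants such as fzo1-1 at 37 °C on non-fermentable ethanol glycerol medium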
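Read-out: ATP-based luminescence (CellTiterGlo, 10 min ambient) reporting growth of fusion-defective ts yeast after 48 hours at 37C on glycerol/ethanol YPEG medium in the presence of compound.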
PKM2 act = qHTS Assay for Activators of Human Muscle isoform 2 Pyruvate Kinase. AID 1631, 2009. purified PKM2, Kinase-Glo ATP luminescence, activation; response scale: 0% is enzyme alone, no compound. Potency, µM (doses to about 57.5 µM), for inactives: at the highest dose activation, usual class: activators. 0.34% of 260,000 active; note: potency is the fitted concentration of half-maximal effect; % is set by controls: 0 for no effect and ±100 for the full control effect; nearly all actives have a fitted effect of over 55% in size
Target sequence (P14618 whole entry, looked up, canonical isoform): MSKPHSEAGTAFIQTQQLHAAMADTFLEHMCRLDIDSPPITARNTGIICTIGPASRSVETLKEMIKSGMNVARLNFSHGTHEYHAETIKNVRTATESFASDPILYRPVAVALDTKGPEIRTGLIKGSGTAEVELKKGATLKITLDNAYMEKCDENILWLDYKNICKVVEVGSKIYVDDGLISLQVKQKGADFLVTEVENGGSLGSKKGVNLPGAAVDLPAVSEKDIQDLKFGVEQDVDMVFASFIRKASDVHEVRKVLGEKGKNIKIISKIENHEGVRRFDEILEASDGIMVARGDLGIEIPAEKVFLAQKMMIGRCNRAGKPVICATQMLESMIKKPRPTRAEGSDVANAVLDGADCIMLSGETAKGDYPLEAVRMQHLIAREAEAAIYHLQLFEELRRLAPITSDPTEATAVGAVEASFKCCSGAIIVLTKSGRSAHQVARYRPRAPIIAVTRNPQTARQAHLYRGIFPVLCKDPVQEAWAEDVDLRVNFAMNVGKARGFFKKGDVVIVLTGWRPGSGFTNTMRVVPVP
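hPK-M2, >95% pure; 0.1 mM ADP / 0.5 mM PEP final; imidazole pH7.2 buffer w/ 7 mM MgCl2, 50 mM KCl; 1 h RT; Kinase-Glo lum. Intermediate enzyme activity for dual inhibitor/activator qHTS.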
USP2a inh = qHTS Assay for Inhibitors of Ubiquitin-specific Protease USP2a Using CHOP2 as the Reporter; Ubiquitin carboxyl-terminal hydrolase 2 (Homo sapiens), O75604; USP2 core, Ub-CHOP2 coupled fluorogenic reporter, 485/531; Potency, µM (highest dose often 38.3 µM), without a hit: at the highest dose activity change, negative = inhibition, hits mostly inhibitors; 0.01% of 330,000 active; AID 463254, 2010;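 note: potency is the fitted concentration of half-maximal effect; plate controls were DMSO wells for no effect and full inhibition by NEM control for full effect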
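Cell-free coupled assay: 10nM USP2 core preincubated 30min RT with compound in Tris-HCl pH 8.0/CaCl2/CHAPS buffer, then 25nM Ub-CHOP2 and 25nM reporter substrate; fluorescence (Ex 485/Em 531) read after 60min RT, normalized to NEM inhibition, concentration-response curves fitted.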
An asterisk follows results filed as active; ? = inconclusive; . = no result given; [ ] = dose if it differs, or a comment. Unless noted, calls come from the whole dose curve; as a rule, active = well fitted curve in the direction sought with a large enough effect; inconclusive = small, poorly fitted or top-dose-only effect, or another doubt; inactive = no such curve, though single readings can be large; an effect the other way counts as inactive or inconclusive. The list is partial (hit frequency here may not be typical).

[1] CCCn1c(C2CCCN2c2nc(-c3cccc(Br)c3)cs2)nc2cc(Cl)c(Cl)cc21 (stereo not given)
[2] O=[N+]([O-])c1cc(C(F)(F)F)ccc1NCCOc1ccccc1
[3] O=C(CCN1C(=O)C2(OCCO2)c2ccccc21)c1ccccc1
[4] N#CCCN(CCC#N)C(=O)c1ccc2c(c1)OCO2
[5] Cc1noc(C)c1S(=O)(=O)Nc1cccc(C(F)(F)F)c1
[6] COc1ccc2cc3cc(C(=O)NCCCN4CCc5ccccc5C4)sc3nc2c1
[7] CCc1ccccc1N/N=C(/C)c1c(O)cc(C)oc1=O
[8] Cc1ccc([N+](=O)[O-])cc1-c1ccc2cccc(C)c2n1

Assay by compound | 1 | 2 | 3 | 4 | 5 | 6 | 7 | 8
Chronic BCR inh | 13% | ? | -2% | 4% | -1% | -9% | 2% | 5%
S-ASM inh | -11% | -12% | 1% | 4% | -2% | 71%[activator] | -1% | -4%
KCNH2 WT inh | 7 | -1 | 13 | -1 | 9 | 12 | -6 | -10
GALK inh | . | 0% | 1% | 0% | -4% | 1% | 0% | 4%
MBNL1 CUG block | 19% | . | 2% | -6% | -3% | . | -2% | -3%
Eya2 phos inh | -10% | -10% | -3% | 2% | -4% | -1% | -14% | 15%
Mito fusion act | -7% | 4% | 6% | -1% | -3% | -6% | -2% | 4%
PKM2 act | 1% | 1% | -4% | 3% | 0% | -2% | 10% | -11%
USP2a inh | -1% | 2% | -4% | 3% | -1% | 0% | 5% | 1%

3 entries out of the list above, ordered by their value in Eya2 phos inh, lowest first:
No. | Structure | Eya2 phos inh
1 | CCCn1c(C2CCCN2c2nc(-c3cccc(Br)c3)cs2)nc2cc(Cl)c(Cl)cc21 (stereo not given) | -10%
5 | Cc1noc(C)c1S(=O)(=O)Nc1cccc(C(F)(F)F)c1 | -4%
8 | Cc1ccc([N+](=O)[O-])cc1-c1ccc2cccc(C)c2n1 | 15%

(more compounds)
[9] O=C(N/N=C1\CCCc2ccccc21)C(O)c1ccccc1 (stereo not given)
[10] Cc1nn(-c2ccccc2)c(C)c1C(=O)NCc1ccccc1F
[11] Cc1ccc2nc3c(nc2c1)-c1ccccc1C3=O
[12] CCCCOc1ccc2c(c1)/C(=C(\C(Cl)=C(Cl)Cl)[N+](=O)[O-])N2
[13] N#Cc1ccc(/C=N/NC(=O)c2cc(-c3cccs3)nc3ccccc23)cc1
[14] CC1(C)OC(=O)C(C(c2ccccc2)C(C#N)C(N)=O)=C(O)O1 (stereo not given)
[15] CN(Cc1nc2ccc(F)cc2[nH]1)Cc1c(C(=O)N(C)C)nc2ccc(Cl)cn12
[16] OCCc1ccc(O)c(-n2nc3ccccc3n2)c1

Assay by compound | 9 | 10 | 11 | 12 | 13 | 14 | 15 | 16
Chronic BCR inh | ? | 14% | 9% | 20% | ? | ? | -4% | 0%
S-ASM inh | 0% | 2% | -3% | 64%[activator] | 13% | 5% | 4% | -1%
KCNH2 WT inh | 5 | 3 | -5 | -20 | -4 | 21 | 2 | -1
GALK inh | 6% | -4% | -1% | 7% | 0% | -2% | 0% | -1%
MBNL1 CUG block | 2% | 0% | ? | 18% | 37%[activator] | 0% | 9% | 14%
Eya2 phos inh | -9% | -13% | 3% | 0% | -16% | 7% | 3% | -8%
Mito fusion act | -1% | -5% | -3% | 5% | 23% | -7% | -2% | -3%
PKM2 act | -8% | -7% | -18% | 19% | 1% | -10% | 0% | 2%
USP2a inh | 0% | -6% | 2% | 12% | 3% | 0% | 2% | 1%

[17] COc1ccc(CNc2nc(-c3cccnc3)nn2C(=O)c2ccco2)cc1
[18] COC(=O)CCN(C(=O)C12CC3CC(CC(C3)C1)C2)c1ccccn1
[19] COc1cc(C)c(S(=O)(=O)NCc2ccc3c(c2)OCO3)cc1C
[20] CSCC[C@@H](C(=O)O)N1Cc2ccccc2C1=O
[21] Cc1cc(C)c(S(=O)(=O)Nc2cccnc2)c(C)c1
[22] Cc1nn(-c2ccc(Cl)cc2)c2[nH]c(=O)c(CNCc3ccc4c(c3)OCO4)cc12
[23] CNC(=O)CSc1nnc(-c2ccco2)n1-c1ccc(C)cc1
[24] S=c1[nH]nc(-c2ccccc2Cl)n1Cc1ccccc1

Assay by compound | 17 | 18 | 19 | 20 | 21 | 22 | 23 | 24
Chronic BCR inh | 8% | ? | -10% | 0% | ? | ? | -6% | 1%
S-ASM inh | -9% | -1% | 2% | 4% | 0% | -1% | 3% | -7%
KCNH2 WT inh | -3 | 5 | -15 | -8 | -12 | 16 | 0 | -2
GALK inh | -1% | 0% | 3% | 2% | 0% | 1% | 3% | -4%
MBNL1 CUG block | -1% | 3% | 1% | -24% | -10% | -1% | -5% | -2%
Eya2 phos inh | -10% | 20% | 6% | 5% | -17% | -5% | -13% | 7%
Mito fusion act | -2% | 0% | 1% | -4% | 4% | 19% | -5% | 6%
PKM2 act | 4% | -1% | -2% | -9% | 0% | 5% | 9% | 7%
USP2a inh | -1% | 3% | ? | 1% | -1% | -1% | 1% | 10%

The list goes on:
Values run as follows: Chronic BCR inh | S-ASM inh | KCNH2 WT inh | GALK inh | MBNL1 CUG block | Eya2 phos inh | Mito fusion act | PKM2 act | USP2a inh
25	COc1ccccc1CN(C)C(=O)C1(c2ccc(Cl)cc2)CC1
    14% | 4% | 0 | 1% | 0% | -10% | 0% | 13% | 2%
26	COc1ccccc1C(CC(=O)Nc1ccc(C)c(C)c1)c1ccc(OC(C)C)cc1 (stereo not given)
    4% | -3% | -8 | 1% | -11% | -8% | -6% | 21% | -1%
27	CCn1c(COc2cccc(C)c2)nnc1SCC(=O)Nc1cccc(C(=O)O)c1
    4% | -2% | 2 | -4% | -7% | -26% | -3% | 3% | 0%
28	O=C(COC(=O)c1cc([N+](=O)[O-])ccc1NCCO)Nc1ccc2c(c1)OCO2
    -4% | -6% | 1 | -1% | 10% | 5% | -3% | 1% | 2%
29	CCN(CC)S(=O)(=O)c1cc(C(=O)n2cccn2)c(Cl)cc1Cl
    0% | -2% | 6 | 1% | -3% | 35% | -1% | -5% | 1%
30	COc1ccc(/C=C2/Sc3ccc(C(=O)N4CCOCC4)cc3NC2=O)cc1OC
    -1% | 0% | 3 | 9% | ? | 0% | -5% | . | -2%
31	CC1CN(C2CC(C)(C)NC(C)(C)C2)CCC1=O (stereo not given)
    1% | 4% | -1 | -2% | 6% | -5% | 3% | 1% | 1%
32	Cc1sc2ncn(CC(=O)NCCCC(=O)N3CCC(C(N)=O)CC3)c(=O)c2c1C
    -1% | 5% | -14 | 15% | -4% | 18% | 7% | 0% | 0%
33	O=c1oc2ccccc2cc1-c1csc(Cc2nc(-c3ccc(Cl)cc3)cs2)n1
    0% | 9% | 0 | 0% | 1% | 5% | -1% | -6% | 3%
34	CC(=O)NS(=O)(=O)c1cccnc1Nc1cccc(Cl)c1
    ? | -3% | 2 | -2% | -1% | 17% | -1% | 2% | 0%
35	CC(C)NC(=O)NC(=O)CSc1nnc(C(F)(F)F)n1C
    0% | 0% | 2 | 0% | -3% | 8% | 10% | 5% | 3%
36	Cc1ccc(OCc2nnc(SCC(=O)Nc3ccc4c(c3)OCCO4)n2Cc2ccco2)cc1
    -8% | -15% | -3 | 1% | 1% | -5% | 5% | 16% | -9%
37	NC(=O)c1ccccc1OCc1cccc2ccccc12
    -4% | -2% | 18 | . | 0% | -3% | -1% | . | 2%
38	Cc1cc(=O)oc(C)c1C(=O)NCC1CCCO1 (stereo not given)
    -2% | 6% | -11 | 0% | 4% | -3% | -6% | -2% | 0%
39	CC(C(=O)N1CCOCC1)N1C(=O)c2ccccc2C1=O (stereo not given)
    10% | 3% | -3 | -1% | -9% | 21% | 1% | -16% | 0%
40	CC(=O)c1ccc(NC(=O)c2cnsn2)cc1
    ? | -1% | 0 | 1% | 12% | 5% | 8% | -28% | 2%
41	Cc1cc(-c2csc(NC(=O)c3ccc(C#N)cc3)n2)c(C)n1Cc1ccco1
    0% | -3% | -3 | 1% | 37%[activator] | 5% | -2% | 12% | -6%
42	CC1CCCN(C(=O)COC(=O)Cc2c(F)cccc2Cl)C1 (stereo not given)
    1% | -2% | -3 | -4% | -2% | -1% | 11% | 1% | 3%
